Compound activity as filed in PubChem.
RE007 growth inh = qHTS Assay for Inhibitors of the HIV-1 protein Vpr; AID 651644, 2012; 0.21% of 360,000 active; Potency, µM (doses to about 92.2 µM), for inactives: at the highest dose activity change, negative = less growth; S. pombe RE007 Vpr strain, BacTiter-Glo ATP luminescence, 24 h; control for the full effect not named in the record; active = well fitted falling curve with a large enough effect; inconclusive = small, poorly fitted or top-dose-only effect; inactive = no such curve, though single readings can be large or run the other way;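 further: on the % scale 0 is the no-effect control and ±100 the full control effect; nearly all actives have a fitted effect of over 50% in size; the assay follows cell death caused by Vpr and the record does not say whether a fall means rescue or toxicity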
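Fission yeast strain RE007, carrying one chromosomally integrated HIV-1 vpr copy, was seeded at OD 0.01 in PMG+AL medium with 23 nL pinned compound. After 24 h at 30 °C and 99% humidity, viability was read by BacTiter-Glo luminescence.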
Cruzain noTriton = qHTS Assay for Promiscuous and Specific Inhibitors of Cruzain (without detergent); Potency, µM, for the others: max response, negative = inhibition, hits mostly inhibitors; purified cruzain, Z-FR-AMC fluorescence, no detergent; Cruzipain (Trypanosoma cruzi), P25779; 2.3% of 200,000 active;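 further: plate controls were enzyme without inhibitor for no effect and buffer without enzyme for full effect; nearly all actives have a fitted effect of over 40% in size; top concentration of the series not given in the record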
Target sequence (P25779 123-467 limits assumed): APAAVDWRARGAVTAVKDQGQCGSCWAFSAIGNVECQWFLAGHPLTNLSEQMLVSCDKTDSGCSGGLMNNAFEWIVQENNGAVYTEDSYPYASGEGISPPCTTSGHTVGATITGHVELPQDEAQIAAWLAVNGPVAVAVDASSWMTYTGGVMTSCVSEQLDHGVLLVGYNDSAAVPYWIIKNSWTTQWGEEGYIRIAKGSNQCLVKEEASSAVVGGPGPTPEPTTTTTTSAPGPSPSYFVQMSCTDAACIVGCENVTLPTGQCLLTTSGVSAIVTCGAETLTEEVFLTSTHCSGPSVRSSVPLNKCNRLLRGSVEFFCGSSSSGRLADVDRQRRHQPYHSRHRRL
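Detergent-free condition (0.00005% Triton X-100) in acetate buffer pH 5.5 with DTT. 1.5 nM enzyme and compound were pre-mixed 15 min, then 2 uM Z-FR-AMC substrate added; reaction progress from fluorescence change between first and third reads (60 s).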
Marburg entry inh = qHTS for inhibitors of binding or entry into cells for Marburg Virus; Potency, µM (titrated, usually from 37.8 µM), without a hit: top-dose activity change, negative = inhibition, usual class: inhibitors; 1.8% of 300,000 active; Marburg virus pseudotyped entry inhibition, cell reporter; control for the full effect not named in the record; about a third of the inactives were read at about 46 µM; active = well fitted inhibition curve with a large enough effect; inconclusive = small, poorly fitted or top-dose-only effect, or effect the other way; inactive = flat fitted curve, though single readings scatter; tested in HEK293 cells; about a fifth of its hits are not listed in these tables; further: on the % scale 0 is the no-effect control and ±100 the full control effect; luciferase read-out
Cruzain Triton = qHTS Assay for Promiscuous and Specific Inhibitors of Cruzain (with detergent) | Potency, µM, inactives show max response, negative = inhibition, hits mostly inhibitors | purified cruzain, Z-FR-AMC fluorescence, 0.01% Triton | 0.43% of 200,000 active | AID 1478, 2009;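 further: plate controls were neutral wells for no effect and buffer without enzyme for full effect; nearly all actives have a fitted effect of over 40% in size; top concentration of the series not given in the record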
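Steps: dispense cruzain (1.5 nM final) in acetate buffer pH 5.5 with DTT and 0.01% Triton X-100; pin-transfer compounds; incubate 15 min RT; add Z-FR-AMC (2 uM final); read fluorescence every 30 s, using the 60 s intensity change.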
NS1 function inh = qHTS Assay for Inhibitors of Influenza NS1 Protein Function. S. cerevisiae slowed by influenza A NS1, growth recovery by OD600. Potency, µM (series often up to 46.1 µM), without a hit: at the highest dose activity, positive = more growth. 0.4% of 270,000 active. AID 2326, 2010; active means well fitted rising curve with a large enough effect; inconclusive means small, poorly fitted or top-dose-only effect; inactive means no such curve, though single readings can be large or run the other way; further: nearly all actives have a fitted effect of over 50% in size
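Compounds were scored for reversing the slow growth caused by influenza A NS1 in S. cerevisiae, measured by optical density at 600 nm. Assay medium contained 2% galactose at pH 6.0; NS1-free yeast of the same strain were the positive control.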
Lassa entry inh = qHTS for Inhibitors of binding or entry into cells for Lassa Virus | Lassa virus pseudotype entry inhibition, cell reporter; control for the full effect not named in the record | Potency, µM (series often up to 37.9 µM), for inactives: at the highest dose activity change, negative = inhibition, hits mostly inhibitors | 1.2% of 300,000 active | AID 540256, 2011; active means well fitted inhibition curve with a large enough effect; inconclusive means small, poorly fitted or top-dose-only effect, or effect the other way; inactive means flat fitted curve, though single readings scatter; tested in HEK293 cells; further: on the % scale 0 is the no-effect control and ±100 the full control effect; nearly all actives have a fitted effect of over 50% in size; luciferase read-out
SARS PLP yeast = qHTS of Yeast-based Assay for SARS-CoV PLP; 0.19% of 330,000 active; Potency, µM (highest dose often 32.9 µM), for inactives: at the top dose activity, positive = growth rescue; S. cerevisiae expressing SARS-CoV PLpro, growth rescue; control for the full effect not named in the record; active means well fitted rising curve with a large enough effect; inconclusive means small, poorly fitted or top-dose-only effect; inactive means no such curve, though single readings can be large or run the other way; further: 0% is about no effect; nearly all actives have a fitted effect of over 55% in size; growth read by luminescence after 48 h
2A StopGo = High Throughput Screening for Foot and Mouth Disease Virus Antivirals | human cells with a luciferase reporter of 2A StopGo recoding; control for the full effect not named in the record | 1.2% of 410,000 active | Potency, µM (top dose mostly 57.9 µM), for inactives: at the highest dose signal change, negative = less light | AID 1159524, 2015; active = well fitted falling curve with a large enough effect; inconclusive = small, poorly fitted or top-dose-only effect; inactive = no such curve, though single readings can be large or run the other way; tested in HEK293T cells; further: on the % scale 0 is the no-effect control and ±100 the full control effect; nearly all actives have a fitted effect of over 45% in size; luciferase light after 4 h
The depositor's hits bear a star; ? = inconclusive; . = no result given; [ ] = another dose, or the depositor's remark. Unless noted, the call rests on the fitted dose curve; in most records, active means well fitted curve in the direction sought with a large enough effect; inconclusive means small, poorly fitted or top-dose-only effect, or another doubt; inactive means no such curve, though single readings can be large; an effect the other way counts as inactive or inconclusive. Potency means the concentration at half of the fitted maximal effect.

structure	RE007 growth inh	Cruzain noTriton	Marburg entry inh	Cruzain Triton	NS1 function inh	Lassa entry inh	SARS PLP yeast	2A StopGo
CC(=O)Nc1c(Cl)c2c(c(Cl)c1Br)-c1ccc(Cl)cc1C2	-9%	.	-1%[46.1 µM]	.	.	3%[46.1 µM]	.	2%
COc1ccc(-c2noc(Cc3ccc(Cl)cc3)n2)cc1OC	-14%	2%	-12%	-3.4%	-18%	?	-14%	-8%
CCCn1c(=O)c2sccc2n2c(CCCC(=O)Nc3ccc(C)c(F)c3)nnc12	.	-1%	.	0.9%	.	-10%[46.1 µM]	.	-20%
Cc1ccc(CNC(=O)c2ccc(Cl)cc2[N+](=O)[O-])cc1	20%	2%	0%	-1.2%	0%	-3%	-7%	10%
CCOC(=O)c1sc(Nc2ccc(C)cc2C)nc1C	-12%	6%	?	-9.2%	-4%	-11%	-12%	1%
O=C(Nc1ccc2oc(-c3ccc4ccccc4c3)nc2c1)c1ccccc1F	.	-5%	16%[46.1 µM]	-0.9%	.	12%[46.1 µM]	.	15%
O=C(Nc1nnc(COc2ccc(F)cc2)s1)c1ccco1	-29%	.	.	.	-76%	.	0%	4%
CC1(C)C(=O)C2(CCCCC2)C(=O)OC1c1ccc(O)cc1 (stereo not drawn)	-7%	-2%	-17%	-2.5%	-54%	-16%	0%	-37%
CCC(=O)Nc1ccccc1-c1nc2ccccc2n(CC(=O)c2ccc(Cl)cc2)c1=O	.	4%	2%[46.1 µM]	-1.1%	.	-9%[46.1 µM]	.	-18%
CC(=O)/C(C#N)=C1\NC(=O)C(Cc2ccc(C)c(Cl)c2)S1 (stereo not drawn)	20%	.	?	.	-4%	?	1%	14%
CCOc1ccc(Nc2ccnc3cc(Cl)ccc23)cc1	11%	.	.	.	-76%	.	3%	-16%
Cn1ncc2c(Nc3ccc(Br)cc3)nc(Nc3ccc(Br)cc3)nc21	-8%	.	?	.	-3%	-20%	-10%	?
CCOc1ccc(OCC)c(S(=O)(=O)NCCCN2CCOCC2)c1	8%	2%	-22%	3.9%	20%	13%	-7%	33%[activator]
COc1ccc(C(=O)Nn2c(SCC(=O)NCc3ccccc3)nc3ccccc3c2=O)cc1	-3%	-6%	?	3.4%	-7%	?	4%	?
O=C(Nc1ccc(Cl)cc1)Nc1ccc(-c2cnco2)cc1	-15%	.	.	.	4%	.	9%	0%
CCN(CC)CCNC(=O)c1cc2c(=O)n(C)c3ccccc3c2s1	-17%	.	?	.	6%	2%[46.1 µM]	0%	3%
COc1ccsc1C(=O)N1CCN(Cc2ccc3c(c2)OCO3)CC1	-7%	-7%	?	-2.1%	5%	?	-4%	-6%
CCOc1ncccc1C(=O)NNC(=O)c1cccc(S(=O)(=O)Nc2ccccc2OC)c1	-18%	.	?	.	.	4%[46.1 µM]	2%	6%
Cc1cc2c(ncn2Cc2ccccc2)c(NS(C)(=O)=O)c1C	0%	2%	15%	3.5%	17%	2%	-1%	-18%
S=C(NCc1ccccc1)Nc1ccncc1	-7%	.	14%[46.1 µM]	.	-10%	?	-3%	0%
CCOCCCNC(=O)c1cc(Sc2ccc(C)cc2)nc2ccccc12	6%	-11%	?	-3.8%	-4%	?	2%	?
CCCc1ccc(OCC(O)CN2CCN(C(=O)OCC)CC2)cc1 (stereo not drawn)	-3%	.	.	.	-8%	.	-2%	-28%
CC(=O)N/C(=C\c1ccc(F)cc1)C(=O)OC(C)C	2%	-3%	.	3.3%	0%	.	3%	-19%
O=C(/C=C1\NC2(CCCC2)Cc2ccccc21)C(=O)N/N=C/c1ccccc1O	7%	25µM*	11µM*	0.7%	?	15µM*	7.9µM*	4%
Cc1ccc(S(=O)(=O)N(CC2CO2)c2cccc([N+](=O)[O-])c2)cc1 (stereo not drawn)	-5%	.	?	.	10%	-8%	0%	7%
CCCCC(=O)NC1(C(F)(F)F)C(=O)Nc2c1c(=O)[nH]c(=O)n2-c1ccc(C)c(C)c1 (stereo not drawn)	.	-3%	23%[46.1 µM]	-1.4%	.	?	.	0%
O=C1NCC(=O)N2C(c3ccccc3)c3[nH]c4ccccc4c3C[C@@H]12 (stereo partly drawn)	-6%	.	-2%[46.1 µM]	.	2%	-5%	2%	-12%
COc1ccc(C/C(C)=N/NC(=S)Nc2ccc(C)c(C)c2)cc1	16%	-2%	12%	-23%	13%	-20%	?	0%
CSc1ccc(CCNC(=O)CSc2ccsc2[N+](=O)[O-])cc1	-4%	-7%	?	-5.8%	27%	3%	5%	0%
CC(C)C(=O)Nc1cc(-c2nc3ncccc3o2)ccc1Cl	8%	.	5%	.	-17%	-11%	-3%	0%
CCOC(=O)CN1N=C(/C=C/c2ccc(C(C)C)cc2)CCC1=O	-15%	.	?	.	.	-4%[46.1 µM]	-9%	16%
Fc1ccc(COc2cccc(-c3n[nH]c(=S)o3)c2)cc1	-19%	.	.	.	4%	.	-3%	-9%
Cc1cnc(SCc2cnc(C)nc2N)nc1	200%	.	-7%[46.1 µM]	.	1%	8%[46.1 µM]	0%	-10%
CCN(Cc1ccncc1)Cc1nc(CC2CC2)no1	4%	.	1%[46.1 µM]	.	3%	?	0%	-17%
CC(C)c1ccc(NC(=O)CN2C(=O)COc3ccc(S(=O)(=O)N4CCCCC4)cc32)cc1	.	-10%	.	-5.7%	.	-1%[46.1 µM]	.	24%
CC(=O)c1ccc(NC(=O)Nc2ccncc2)cc1	27%	.	.	.	5%	.	0%	43%[activator]
O=C(NN1C(=O)C2C3C=CC(C4CC34)C2C1=O)c1ccc(Br)cc1 (stereo not drawn)	-9%	.	-16%[46.1 µM]	.	4%	-13%	1%	-27%
COc1ccc(CN(C)C(=O)c2ccncc2)c(OC)c1	4%	.	23%[46.1 µM]	.	9%	?	-4%	-8%
CCOC(=O)c1cccc(NC(=O)C(NS(=O)(=O)c2ccc3c(c2)CCN3C(C)=O)C(C)C)c1 (stereo not drawn)	10%	-2%	-8%	3.1%	?	-20%	5%	18%
CC(=O)OC1CCC2(C)C(COc3ccc4ccc(=O)oc4c3)C(C)(O)CCC2C1(C)C (stereo not drawn)	-1%	?	?	-3.6%	-7%	?	-12%	-20%
CC(C)c1ccc(NC(=S)Nc2ccc3cn[nH]c3c2)cc1	18%	.	?	.	.	0%	-1%	4%
COc1ccc(NC(=O)CCc2nnc3n(C)c(=O)c4sccc4n23)cc1	.	6%	3%[46.1 µM]	-0.8%	.	5%[46.1 µM]	.	-18%
COc1ccc(NC(=O)C2CCN(S(=O)(=O)c3ccccc3)CC2)cc1	-4%	.	10%[46.1 µM]	.	5%	-2%[46.1 µM]	4%	1%
CCOc1ccc(/C(O)=C2/C(=O)C(=O)N(CCCN3CCOCC3)C2c2ccc(F)cc2)cc1C (stereo not drawn)	-10%	.	30%[46.1 µM]	.	-4%	?	4%	-8%
N#C/C(=C(/O)COc1ccccc1)c1nnc2n1CCCCC2	-2%	.	-2%[46.1 µM]	.	0%	4%[46.1 µM]	-4%	-8%
Cc1c(-c2nc(-c3ccc4c(c3)[nH]c(=O)n4C)no2)cccc1[N+](=O)[O-]	.	-4%	.	-1.1%	.	23%[46.1 µM]	.	-3%
CCOC(=O)CCCNC(=O)CSc1nnc(-c2ccccc2)c(-c2ccccc2)n1	13%	.	?	.	-24%	?	-3%	-17%
O=C(CCN1C(=O)COc2ccccc21)NCc1cccnc1	-4%	?	19%	-0.3%	-2%	-7%	7%	.

Some of the entries so far, with two lines to a compound:
Fields: RE007 growth inh	Cruzain noTriton	Marburg entry inh	Cruzain Triton	NS1 function inh	Lassa entry inh	SARS PLP yeast	2A StopGo
CCOc1ccc(/C(O)=C2/C(=O)C(=O)N(CCCN3CCOCC3)C2c2ccc(F)cc2)cc1C (stereo not drawn)
  -10%	.	30%[46.1 µM]	.	-4%	?	4%	-8%
CCOC(=O)CCCNC(=O)CSc1nnc(-c2ccccc2)c(-c2ccccc2)n1
  13%	.	?	.	-24%	?	-3%	-17%

Further entries:
structure	RE007 growth inh	Cruzain noTriton	Marburg entry inh	Cruzain Triton	NS1 function inh	Lassa entry inh	SARS PLP yeast	2A StopGo
Cc1cc(C)cc(NC(=O)CN2CCC(NC(=O)c3ccccc3F)CC2)c1	-16%	.	.	.	11%	.	7%	-1%
CN(C)C(CNC(=O)c1ccccc1C(F)(F)F)c1ccco1 (stereo not drawn)	-12%	.	5%[46.1 µM]	.	4%	16%	-21%	-10%
CC(Sc1ncccn1)C(=O)NNC(=O)c1cccc(Cl)c1 (stereo not drawn)	5%	.	-2%	.	.	29%	2%	-2%
C=CCOC(=O)/C(=C/c1cccc2ccccc12)NC(=O)c1ccccc1	5%	-10%	0%	-17%	0%	-1%	-31%	31%[activator]
Nc1ccc(C(=O)N2CCN(S(=O)(=O)c3ccc4c(c3)OCCO4)CC2)cc1[N+](=O)[O-]	-15%	.	-6%	.	-6%	?	-1%	?
COc1ccc(NC(=O)c2c(N)c(C(=O)c3ccc(C)cc3)n3ccccc23)cc1OC	.	?	-3%[46.1 µM]	-5.0%	.	2%[46.1 µM]	.	-11%
